KCNQ2 block: KCNQ2 potassium channel inhibitors, primary screen, cell-based, CHO-K1, FluxOR thallium flux, B-score (AID 2156); Potassium voltage-gated channel subfamily KQT member 2 (Rattus norvegicus), O88943; 20 min; active compounds read low; only compounds with negative scores are shown here; some inactives read as strong as hits; 310,000 tested, 1.1% active; B-score at 10 µM;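 active = fluorescence ratio B-score at most minus 3 library SDs, with starting brightness B-score within 2 library SDs, cut at about -5.5 in these data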
Target sequence (O88943 whole entry, looked up): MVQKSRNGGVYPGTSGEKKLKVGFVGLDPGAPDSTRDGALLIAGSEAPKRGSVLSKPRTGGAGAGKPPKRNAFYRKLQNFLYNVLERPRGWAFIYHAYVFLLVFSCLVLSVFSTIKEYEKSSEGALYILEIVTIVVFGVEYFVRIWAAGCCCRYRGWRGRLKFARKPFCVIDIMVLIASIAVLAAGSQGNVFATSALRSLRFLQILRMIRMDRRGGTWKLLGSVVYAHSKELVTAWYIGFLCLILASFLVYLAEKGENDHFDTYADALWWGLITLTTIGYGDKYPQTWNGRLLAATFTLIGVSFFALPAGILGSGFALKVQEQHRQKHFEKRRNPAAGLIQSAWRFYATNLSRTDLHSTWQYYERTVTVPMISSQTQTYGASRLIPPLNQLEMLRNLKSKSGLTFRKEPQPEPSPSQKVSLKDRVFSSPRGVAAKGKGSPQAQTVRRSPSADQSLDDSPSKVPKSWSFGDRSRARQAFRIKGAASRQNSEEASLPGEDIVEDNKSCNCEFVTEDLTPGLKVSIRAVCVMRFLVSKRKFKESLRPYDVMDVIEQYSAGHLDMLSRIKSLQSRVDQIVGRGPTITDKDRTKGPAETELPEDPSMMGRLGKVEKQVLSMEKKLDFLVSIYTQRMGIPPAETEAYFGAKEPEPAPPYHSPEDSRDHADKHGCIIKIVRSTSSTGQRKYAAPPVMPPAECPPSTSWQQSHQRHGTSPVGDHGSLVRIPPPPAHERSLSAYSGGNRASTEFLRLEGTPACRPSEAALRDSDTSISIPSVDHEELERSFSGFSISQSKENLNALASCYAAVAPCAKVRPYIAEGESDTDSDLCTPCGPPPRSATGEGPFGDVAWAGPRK
KCNQ2 block baseline: recorded beside KCNQ2 block, whose call it bears; B-score; measured here: initial fluorescence intensity artifact check;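 brightness before thallium and not channel activity; 0 = typical well and far values either way flag optical interference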
Active calls of the source: *; i = inactive.

The line under a structure holds: KCNQ2 block	KCNQ2 block baseline
- N#CC1(NC(=O)COC(=O)c2ccc(Cl)nc2)CCCCC1
    i	1.51
- O=C(NC1CC1)c1ccc(CSCc2cccc(F)c2)o1
    i	1.42
- Cc1cc(C(=O)COC(=O)CC2Sc3ccccc3NC2=O)c(C)n1-c1cccc(C(F)(F)F)c1 (stereo not given)
    i	0.05
- Cc1ccc(C(=O)N2CCNC(=O)C2CC(=O)Nc2ccccc2)cc1 (stereo not given)
    i	1.79
- COc1cc([N+](=O)[O-])cc(/C=C2/SC(=S)N(Cc3ccccc3)C2=O)c1O
    i	1.1
- CCCn1c(NCc2cccs2)nc2ccccc21
    i	2.33
- O=C(CCN1CCN(c2ccccc2)CC1)Nc1ccc2c(c1)OCO2
    i	-0.37
- O=S1(=O)CCN(Cc2ccccc2Cl)CC1
    i	-0.03
- CC(Sc1nc(-c2ccccc2)cc(C(F)(F)F)n1)C(=O)O (stereo not given)
    i	0.59
- CC(=O)NC(CC(=O)N(Cc1ccccc1)c1cccc(C)c1)c1ccccc1 (stereo not given)
    i	-1.26
- COc1cccc(CNC(=O)Cn2cc3c(n2)CCCC3)c1
    i	0.8
- CCOC(=O)C1CCCN(S(=O)(=O)c2c(C(=O)N3CCCCC3)c(C)n(C)c2C)C1 (stereo not given)
    i	-0.44
- CC1(C)Cc2c(ccc3ccccc23)C(=O)N1
    i	-0.67
- CC1=Nc2ccccc2N=C(NC(=O)c2ccccc2)C1c1ccccc1 (stereo not given)
    i	-1.13
- O=C(COc1ccc(F)cc1Cl)N(Cc1nnc(-c2ccccc2Cl)o1)C1CC1
    i	0.13

Going on with the list:
The line under a structure holds: KCNQ2 block	KCNQ2 block baseline
- NC(=NC(=O)c1ccc(OC(F)(F)F)cc1)c1ccc(C(F)(F)F)cn1
    i	0.15
- COc1ccc(-c2nc(NC(=O)CSCCO)sc2C)cc1
    i	-1.22
- O=C(COC(=O)Cn1cnc2ccccc21)Nc1cc(S(=O)(=O)N2CCOCC2)ccc1Cl
    i	-0.53
- CCCOc1ccc(N2C(=O)CC(SC(=N)N3N=C(c4ccccc4)CC3c3ccccc3)C2=O)cc1 (stereo not given)
    i	-0.11
- Cc1cc(NC(=O)CSc2nnc(Cc3ccccc3)o2)no1
    i	-0.26
- COc1ccccc1NC(=O)C1CCN(S(=O)(=O)c2ccc3c(c2)CC(C)N3C(C)=O)CC1 (stereo not given)
    i	1.37
- Cn1c(SCc2ccc(C#N)cc2)nnc1-c1cccc(Cl)c1
    i	2.55
- COc1ccc(-c2csc(NC(=O)CSc3nc(SC)ns3)n2)cc1
    i	1.19
- Cc1cccc(-n2cc(CN3CCN(Cc4nccn4C)CC3)c(-c3cccc(F)c3)n2)c1
    i	-0.17
- C/C(=C\c1ccccc1)C(=O)n1nnc2ccccc21
    i	0.82
- Cc1cc(Cl)ccc1Oc1ncc(CN2CCN(c3ccccc3)CC2)s1
    i	-0.81
- CSc1nc2ccc(NS(=O)(=O)c3ccc(Cl)s3)cc2s1
    i	-3.12
- CN(C(=O)c1ccco1)c1nc(CC(=O)Nc2ccccc2)cs1
    i	-0.48
- COc1ccc(NC(=O)N(CCO)Cc2cc3c(C)cc(C)cc3[nH]c2=O)cc1
    i	2.28
- Cc1ccsc1C(=O)C1CCCN(Cc2cccn2-c2ccc(Cl)cn2)C1 (stereo not given)
    i	-0.55

In a second layout: four of the compounds above
Cc1cc(Cl)ccc1Oc1ncc(CN2CCN(c3ccccc3)CC2)s1
- KCNQ2 block: i
- KCNQ2 block baseline: -0.81
NC(=NC(=O)c1ccc(OC(F)(F)F)cc1)c1ccc(C(F)(F)F)cn1
- KCNQ2 block: i
- KCNQ2 block baseline: 0.15
O=C(COC(=O)Cn1cnc2ccccc21)Nc1cc(S(=O)(=O)N2CCOCC2)ccc1Cl
- KCNQ2 block: i
- KCNQ2 block baseline: -0.53
Cn1c(SCc2ccc(C#N)cc2)nnc1-c1cccc(Cl)c1
- KCNQ2 block: i
- KCNQ2 block baseline: 2.55

Three entries from above, with values ahead of the structure.
KCNQ2 block | KCNQ2 block baseline | mol
i | 0.82 | C/C(=C\c1ccccc1)C(=O)n1nnc2ccccc21
i | 2.55 | Cn1c(SCc2ccc(C#N)cc2)nnc1-c1cccc(Cl)c1
i | 0.15 | NC(=NC(=O)c1ccc(OC(F)(F)F)cc1)c1ccc(C(F)(F)F)cn1

The results go on.
The line under a structure holds: KCNQ2 block	KCNQ2 block baseline
- CC(NC(=O)c1cccs1)c1ccccc1 (stereo not given)
    i	1.08
- COc1ccc(S(=O)(=O)n2nc(-c3ccc(Cl)cc3)cc2N)cc1
    i	-2.01
- O=C(/C=C/c1ccco1)NCC1(c2ccccc2)CCCC1
    i	0.39
- Cc1nn(C)c(C(=O)N/N=C/c2ccncc2)c1Cl
    i	0.88
- O=C(Cn1c(-c2ccccc2)c[n+]2ccsc12)c1ccc([N+](=O)[O-])cc1
    i	-0.34
- Cc1cc(C(=O)O)c(=O)[nH]c1C
    i	1.59
- COc1ccccc1CNC(=O)C1CCC(CNC(=O)[C@@H]2Cc3ccccc3CN2)CC1 (stereo not given in full)
    i	0.01
- COc1ccc(OCC(=O)Nc2ccc(N3CCOCC3)cc2)cc1
    i	-0.4
- CCOC(=O)c1[nH]c2ccc(OC)cc2c1NC(=O)/C=C/c1ccc2c(c1)OCO2
    i	-0.36
- CCC(C)(C)NC(=O)CCCSc1nc2ccccc2s1
    i	1.31
- COc1cccc(C(=O)N2CCN(Cc3cn[nH]c3-c3ccc(F)cc3F)CC2)c1
    i	-1.47
- Cc1cccc(N=C2NC(=O)C(CO)(CO)S2)c1
    i	0.06
- CC(=O)N1CCC(C(=O)N2CCN(S(=O)(=O)c3cccs3)CC2)CC1
    i	-0.11
- O=C(NCCC1CCCCN1S(=O)(=O)c1ccc(F)cc1)C(=O)NCC1CCCO1 (stereo not given)
    i	0.74
- Cc1cc([N+](=O)[O-])nn1CC(=O)NNC(=S)Nc1ccc([N+](=O)[O-])cc1
    i	0.04

Next section:
The line under a structure holds: KCNQ2 block	KCNQ2 block baseline
- Cn1c(=O)c2nc(-c3ccccc3)c(-c3ccccc3)nc2n(C)c1=O
    i	-0.57
- O=S(=O)(/N=C(/Nc1ccc(F)cc1F)c1ccccc1)c1ccc(Br)cc1
    i	-0.21
- O=C(COc1c(Br)cc(Br)c2cccnc12)Nc1ccccc1F
    i	1.07
- O=S(=O)(NCCc1ccccc1)c1cccc2cccnc12
    i	1.2
- Cc1ccc(S(=O)(=O)N2CCOC23CCN(S(=O)(=O)c2cccs2)CC3)cc1
    i	-0.91
- COC(=O)C1=C(C)NC(C)=C(C(=O)OC)C1C(=O)OCC(=O)N1c2ccccc2CC1C (stereo not given)
    i	0.99
- Cc1nc(-c2ccccc2)sc1C(=O)CSc1ccccc1
    i	0.1
- COc1cc2c(cc1OC)CN(CC(=O)Nc1cccc(C(F)(F)F)c1)CC2
    i	-0.17
- Nc1ccccc1C(=O)/C=C/c1ccc2c(c1)OCO2
    i	-1.15
- COCCNC(=O)CN(c1ccc(C)cc1)S(=O)(=O)c1ccc(SC)cc1
    i	-3.31
- Cc1ccc(N2CC(C(=O)NC3=NCCS3)CC2=O)cc1 (stereo not given)
    i	-0.47
- CCOC(=O)[C@@H]1[C@H]2COc3ccccc3[C@H]2N2C(=O)N(c3ccc(Cl)cc3)C(=O)[C@@]12C
    i	2.05
- COc1ccc(OCC(=O)NNC(=S)NC(=O)c2ccc([N+](=O)[O-])cc2)cc1
    i	-1.46
- CCCn1c2ccccc2c2cnn(CC(=O)NC3CCCC(C)C3C)c(=O)c21 (stereo not given)
    i	0.16
- Cc1ccc(S(=O)(=O)N(CC(=O)Nc2ccccc2C(=O)O)c2ccccc2)cc1
    i	1.62

Remaining list, next part:
The line under a structure holds: KCNQ2 block	KCNQ2 block baseline
- O=C(c1cccc(NS(=O)(=O)c2ccccc2)c1)N1CCCCC1
    i	2.18
- O=C(CNc1ccc(F)cc1)N/N=C1\CCCc2ccccc21
    i	-0.16
- Cc1ccccc1COc1ccc(/C(O)=C2/C(=O)C(=O)N(CCCn3ccnc3)C2c2ccco2)cc1 (stereo not given)
    i	0.67
- Cc1noc(C)c1C(=O)Nc1sc(C)c(-c2ccccc2)c1C#N
    i	-0.66
- C=CCNC(=S)NNc1nc2c(c(=O)[nH]1)C1(CCCCC1)Cc1ccccc1-2
    i	-0.25
- CC(Nc1cc(N2CCCC2)ccc1[N+](=O)[O-])c1ccccc1 (stereo not given)
    i	-0.26
- O=C1C(CCCNC(=S)NCc2ccccc2)NC(=S)N1Cc1ccccc1 (stereo not given)
    i	-1.37
- CCc1cccc2[nH]c3cc([N+](=O)[O-])ccc3c12
    i	0.84
- O=C(COC(=O)C1(c2ccc(F)cc2)CCCC1)Nc1ncc(C(F)(F)F)cc1Cl
    -6.98*	0.98*
- C#CCOCCOCCOCCNc1nc(N2CCN(C(=O)[C@H](CCCCN)n3cc(C(N)CO)nn3)CC2)nc(N2CCN(C(=O)[C@H](CCC(=O)O)n3cc(C(N)[C@H](C)CC)nn3)CC2)n1 (stereo not given in full)
    i	0.16
- O=C(Nc1ccccc1N1CCCCC1)c1cccc(OC(F)F)c1
    i	-0.02
- CCc1ccc2[nH]c(C)c(CN3CCCCCC3)c(=O)c2c1
    i	-0.66
- N#CC1=C(N)SC(N)=C(C#N)C1c1cccc(Oc2ccccc2)c1
    i	-1.65
- N#CC1=C(N)C(C#N)(C#N)C(c2cccnc2)C2COCC=C12 (stereo not given)
    i	0.51
- O=C(NCCO)C(=O)NCC(c1ccc2c(c1)OCO2)N1CCN(c2ccc(F)cc2)CC1 (stereo not given)
    i	2.16

Exported field by field: entries from further up
C#CCOCCOCCOCCNc1nc(N2CCN(C(=O)[C@H](CCCCN)n3cc(C(N)CO)nn3)CC2)nc(N2CCN(C(=O)[C@H](CCC(=O)O)n3cc(C(N)[C@H](C)CC)nn3)CC2)n1 (stereo not given in full)
  KCNQ2 block: i | KCNQ2 block baseline: 0.16
O=C(Nc1ccccc1N1CCCCC1)c1cccc(OC(F)F)c1
  KCNQ2 block: i | KCNQ2 block baseline: -0.02

(cont.)
The line under a structure holds: KCNQ2 block	KCNQ2 block baseline
- CCN(CC)c1ccc(S(=O)(=O)N2CCOCC2)cc1NC(=O)CN1C(=O)NC2(CCCC2)C1=O
    i	-0.22
- COc1cccc2cc(C(=O)NCc3ccc(Cl)cc3)c(=N)oc12
    i	0.02
- CCc1cc(C(=O)OC)c(NC(=O)CC2SC(=NC)N(C)C2=O)s1 (stereo not given)
    i	1.01
- O=C1CC(=Nc2ccccc2)NN1c1ccccc1
    i	-1.01
- COc1ccc(C(=O)COC(=O)CCCn2c(=O)oc3ccccc32)cc1
    i	-2.2
- CC(C)(C)c1ccc(S(=O)(=O)O/N=C2/CCCCC2c2ccc([N+](=O)[O-])cc2[N+](=O)[O-])cc1 (stereo not given)
    i	1.8
- O=C(CSc1nnc(Cc2ccc3c(c2)OCO3)n1C1CCCCC1)NC1CCCC1
    i	1.5
- NNC(=O)CN1C(c2cccc(Cl)c2)=Nc2ccc(Br)cc2C1c1ccccc1 (stereo not given)
    i	-2.03
- Cc1ncc(CN2CCCC(C(=O)Nc3ccc(-c4cccc(F)c4)cc3)C2)cn1 (stereo not given)
    i	0.63
- Cc1ccc2oc(C(=O)N(C)Cc3ccc(C)o3)c(C)c2c1
    -7.94*	-0.13*
- COc1ccccc1NC(=O)c1ccc(NS(=O)(=O)c2c(C)noc2C)cc1
    i	1.4
- O=C(NCc1ccccc1)c1ccc(NC(=O)c2ccco2)cc1
    i	-1.87
- Clc1ccc(CO/N=C2\CCCc3nonc32)cc1
    i	-0.01
- Nc1ncnc2c1ncn2[C@@H]1O[C@H](CO)[C@@H](O)[C@@H]1O
    i	1.53
- COc1cccc(C2c3[nH]c4ccccc4c3C[C@H]3C(=O)N(C4CC4)CC(=O)N23)c1 (stereo not given in full)
    i	-1.89

Additional structures.
The line under a structure holds: KCNQ2 block	KCNQ2 block baseline
- O=C(Nc1nc(-c2ccncc2)cs1)C1c2ccccc2Oc2ccccc21
    i	-0.27
- CCN(CCO)Cc1cn[nH]c1-c1ccc(C)c(C)c1
    i	-0.54
- COc1cc(-c2nc3n(n2)C(c2ccncc2)C2=C(CCCC2=O)N3)cc(OC)c1OC (stereo not given)
    i	1.92
- O=C(c1ccc(-c2ccccc2)c(F)c1)C1CCCN(C(=O)c2cncs2)C1 (stereo not given)
    i	-0.78
- CCCCNC(=O)CCCn1c(=S)[nH]c2cc3c(cc2c1=O)OCO3
    i	1.41
- C/C(=N/NC(=O)c1cc(-c2cccc([N+](=O)[O-])c2)n[nH]1)c1cccc(O)c1
    i	1.09
- NC(=O)NC(CC(=O)NCCCc1ccccc1)c1ccccc1Cl (stereo not given)
    i	-1.08
- CC1(C)C=C2[C@H]3CC[C@@H]4[C@@]5(C)CCC(=O)C(C)(C)[C@@H]5CC[C@@]4(C)[C@]3(C)CC[C@@]2(C(=O)O)CC1
    i	-1.28
- O=C(COc1ccc([N+](=O)[O-])cc1)N1CCc2ccccc2C1
    i	-1.27
- CC(NC(=O)c1cccs1)c1n[nH]c(=S)n1C (stereo not given)
    i	0.82
- CCc1nc(C#N)c(N2CCCCC2)o1
    i	-0.98
- Cc1cc(C)n2nc(C)c(Br)c2n1
    i	0.82
- O=C(CSc1cn[nH]n1)Nc1ccc(O)c(C(=O)O)c1
    i	1.49
- CCSc1nnc2n1C(C)(C)Cc1ccccc1-2
    i	1.18
- O=C(NCc1csc2ccc(Cl)cc12)Nc1ccccc1
    i	-0.75

Later entries:
The line under a structure holds: KCNQ2 block	KCNQ2 block baseline
- Cc1ccsc1/C=C1\SC(=S)N(CC2CCCO2)C1=O (stereo not given)
    i	-0.15
- CC(=O)c1cccc(NC(=O)CNC(=O)c2sc3ccccc3c2Cl)c1
    i	0.82
- O=C(CCNC(=O)c1ccc([N+](=O)[O-])cc1)Nc1ccc(F)cc1F
    i	-1.99
- COc1ccc(CNC(=O)C/C(C)=N/NC(=O)COc2ccccc2)cc1
    i	0.34
- CCCn1c(SCC(=O)N2c3ccccc3CC2C)nnc1-c1ccco1 (stereo not given)
    i	0.82

The list is partial. The share of hits here may be higher or lower than overall.
